Assay outcomes deposited in PubChem by National Center for Advancing Translational Sciences (NCATS).
SmPrx2 inh = Schistosoma mansoni Prx2 inhibition; S. mansoni Prx2 activity coupled to TGR/GSH (TGR is thioredoxin glutathione reductase), NADPH fluorescence loss, qHTS; some inactives read as strong as hits; Potency, µM; 0.07% of 65,000 active; active means full or partial inhibition curve with a strong effect at the top dose; inconclusive means weaker partial or single-point curve; inactive means no accepted curve; also: series up to 57 µM; many of its hits are not listed in these tables
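qHTS, coupled TGR/Prx2 format; 15 min compound preincubation at RT; reaction started with H2O2 (2.5 mM aliquot); kinetic NADPH fluorescence decrease, ex 365/em 450 nm.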
Anthrax LT inh = inhibitors of anthrax lethal toxin internalization. 0.67% of 70,000 active. AID 912. Potency, µM (top dose mostly 40 µM), inactives show top-dose activity change, negative = inhibition, usual class: inhibitors. Cells, anthrax lethal toxin internalization, FRET ratio (460/530); active = well fitted falling ratio curve with the 530 nm signal flat; inconclusive = other ratio curves, or a change in one channel alone; inactive = flat curves in the ratio and both channels; the % refers to the ratio; also: % is scaled to controls: 0 for no effect and ±100 for the full control effect; nearly all actives have a fitted effect of over 50% in size; tested in ME-180 cells; beta-lactamase reporter
* = called active by the depositor; ? = inconclusive; . = no result given; & = joins results of further samples; [ ] = another dose, or the depositor's remark. Potency is read from the fitted curve at half-maximal effect. Only part of the results is shown. The share of hits here may be higher or lower than overall.

SMILES | SmPrx2 inh | Anthrax LT inh
Cc1ccc2cc(CN(CCCO)S(=O)(=O)c3cccc4nsnc34)c(=O)[nH]c2c1C | >57 | -3.5%
CCOc1cc(NC(=O)C2CCCCC2)c(OCC)cc1NC(=O)c1ccco1 | >57 | 2.1%
Cn1c(NC(=O)c2ccccc2NC(=O)C(C)(C)C)nc2ccccc21 | >57 | -18.9%
O=C(CCn1c(=O)oc2ccccc21)Nc1ccccc1 | >57 | -14.5%
COC(=O)c1ccc(-n2nnnc2SCc2nn[nH]n2)cc1 | >57 | -5.3%
CCOC(=O)c1[nH]c(C)c(C(=O)N2CCOCC2)c1C | >57 | -3.5%
C=CCNC(=O)c1cc([N+](=O)[O-])cc2c(=O)[nH]c(Nc3ccc(Cl)c(Cl)c3)nc12 | . | -4.3%
COc1ccc(Cc2nnc(NC(=O)C3CCCO3)s2)cc1 (configuration not stated) | >57 | ?
Cc1cccc(OCC(O)Cn2c(=N)n(CCN3CCOCC3)c3ccccc32)c1 (configuration not stated) | >57 | ?
CCOc1ccc(C(=O)Nc2ccc(NC(=O)c3ccco3)c(Cl)c2)cc1Br | >57 | -19.2%
Cc1ccc(S(=O)(=O)N(CC(=O)O)Cc2ccccc2F)cc1 | >57 | 17.1%
Cc1[nH]nc(N=CC2=C(O)CC(C)(C)CC2=O)c1-c1ccccc1 | >57 | .
Cc1occc1-c1nnc(SCC(=O)Nc2ccccc2)n1C(C)c1ccccc1 (configuration not stated) | >57 | -24.4%
O=C(CSc1nc2ccccc2s1)NCCCN1CCOCC1 | >57 | -7.9%
CCOC(=O)C1CCN(c2c(NCc3ccc(C(=O)NCCC(C)C)cc3)c(=O)c2=O)CC1 | >57 | -2.1%
CCOC(=O)Nc1ccc2c(c1)N(C(=O)CN1CCN(C)CC1)c1ccccc1S2 | >57 | .
COCCn1c(=N)c(C(=O)NCCc2ccccc2)cc2c(=O)n3cccc(C)c3nc21 | . | ?
C=CCSc1nncn1/N=C/c1ccc(OC)cc1 | >57 | -6.8%
CCOC(=O)N1CCN(S(=O)(=O)c2ccc3[nH]c(=O)sc3c2)CC1 | >57 | 1.9%
CCN(CC)C(=O)C1=C(C)NC(=O)NC1c1c(F)cccc1Cl (configuration not stated) | >57 | 1.7%
CCS(=O)(=O)N1CCC(C(=O)NCc2ccco2)CC1 | >57 | -4.6%
COC(=O)c1ccc(CSc2nc3c(cnn3-c3ccc(C)cc3)c(=O)[nH]2)o1 | >57 | 14.9%
Cc1ccc(N=C=O)cc1N=C=O | . | -5.6%
CC12C(=O)N(c3ccccn3)C(=O)C1C1C=CC2C1 (configuration not stated) | >57 | -0.5%
Nc1ccccc1S(=O)(=O)O | . | -2.8%

Entries of single compounds as entered above:
C=CCNC(=O)c1cc([N+](=O)[O-])cc2c(=O)[nH]c(Nc3ccc(Cl)c(Cl)c3)nc12 as listed: SmPrx2 inh = .; Anthrax LT inh = -4.3%
Cc1ccc(N=C=O)cc1N=C=O as listed: SmPrx2 inh = .; Anthrax LT inh = -5.6%

Next section
SMILES | SmPrx2 inh | Anthrax LT inh
c1ccc(C(NCCNC(c2ccccc2)c2ccccc2)c2ccccc2)cc1 | . | 10µM*
COc1ccc(OC)c(NC(=O)C2CCCN(S(=O)(=O)c3c(C)noc3C)C2)c1 (configuration not stated) | >57 | -13.6%
COc1cccc(C2(O)CCN(C(=O)C3CC3)CC2)c1 | >57 | 3.8%
Cc1ccc2c(c1)c1c3n2CCN[C@H]3CCC1 | >57&>57 | ?
O=S(c1ccsc1)c1ccsc1 | >57 | .
CCOC(=O)c1ccc2nc(NC(=O)C(C)C)sc2c1 | >57 | 29.3%
CCCCOC(=O)Cn1c(=O)oc2ccc(C)cc21 | >57 | -2.5%
CN(C)c1ccc(NC(=O)Cn2ncn3c(cc4ccccc43)c2=O)cc1 | >57 | -15.6%
CC1CCN(C(C(=O)Nc2ccc3c(c2)OCO3)c2ccccc2)CC1 (configuration not stated) | >57 | -6.7%
Cc1nnc(SCC(=O)c2c(N)n(C)c(=O)n(C)c2=O)[nH]c1=O | >57 | ?
O=C1CN(C(=O)COC(=O)C23CC4CC(CC(O)(C4)C2)C3)c2ccccc2N1 | >57 | 4.7%
CN(C)Cc1ccccc1-c1cc(Nc2ccccc2)ncn1 | >57 | -5.7%
Cc1ccc(C2(O)CCN3CCCCC32)cc1 (configuration not stated) | >57 | -29.6%
CC(C#N)On1c(SC(C)C#N)nc2ccccc2c1=O (configuration not stated) | >57 | 10.3%
Cc1nc2ncnn2c(C)c1CCC(=O)O | >57 | ?
COc1ccc(Oc2ncc3nc(-c4cccc(C#N)c4)c(=O)n(CCC#N)c3n2)cc1 | >57 | -27.3%
Cc1ccc2cccc(S(=O)(=O)N3CCN(c4cccc(Cl)c4)CC3)c2n1 | >57 | -2.1%
CO[C@H]1COC(=O)[C@@H](C)COC(=O)[C@@H](COCc2ccccc2)NC(=O)C/C=C\[C@H]1C | . | -4.8%[1.6 µM]
O=C(Cn1cnc2c(oc3ccccc32)c1=O)N1CCN(c2ccccc2)CC1 | >57 | ?
CC(C)Sc1nnc([C@@H]2CCCN2C(=O)OC(C)(C)C)o1 | >57 | ?
CCOC(=O)CSC1=C(C#N)C(c2ccccc2C)C2=C(CCCC2=O)N1 (configuration not stated) | >57 | 12.0%
CC(C)NC(=O)[C@@H]1C[C@H]1[C@@H](NC(=O)OCc1ccccc1)c1ccccc1 | . | -3.7%
CCCCCn1c(=NC(C)=O)c(C#N)cc2c(=O)n3ccccc3nc21 | >57 | ?
O=C(C1CCN(S(=O)(=O)c2cccc3nsnc23)CC1)N1CCc2ccccc2C1 | >57 | 9.4%
NCCC[C@@H](CC(=O)N[C@@H]1CCCC[C@H]1C(=O)N[C@H](CC(=O)N[C@@H](CCC(=O)O)CC(=O)O)Cc1c[nH]c2ccccc12)NC(=O)C[C@H](Cc1ccccc1)NC(=O)[C@@H]1CNCC[C@H]1N | >57 | -0.7%
Next section
SMILES | SmPrx2 inh | Anthrax LT inh
COc1cccc(N2CC(C)Cn3c2nc2c3c(=O)n(CCN3CCOCC3)c(=O)n2C)c1 (configuration not stated) | >57 | 6.3%
CCC(=O)OCC(=O)[C@@]1(OC(=O)CC)[C@H](C)C[C@@H]2[C@@H]3[C@H]([C@@H](O)C[C@@]21C)[C@]1(C)C=CC(=O)C=C1C[C@@H]3Cl | >57 | -7.9%[3.58 µM]
CC(C)(C)NC1=CC(=O)OC12CCCCC2 | >57 | ?
CCOc1cc(C(=O)N2CCC3(CC2)OCCO3)cc(OCC)c1OCC | >57 | ?
CS(=O)(=O)N1CCc2cc(C(=O)N3CCCCC3)ccc21 | >57 | 5.1%
CC(=O)Nc1ccc(S(=O)(=O)NCC(C)NS(=O)(=O)c2ccc(NC(C)=O)cc2)cc1 (configuration not stated) | >57 | 9.6%
CCC(=O)Nc1cccc(-c2cn3ccsc3n2)c1 | >57 | 2.1%
Nc1ccc(S(=O)(=O)c2ccc(N)cc2)cc1 | >57 | 4.0%
CCCCS(=O)(=O)NC1=NCN(Cc2ccco2)CN1 | >57 | -1.4%
CCN(CC)CCOC(=O)c1ccc(NC(=O)CCNC(=O)Cn2ccc3ccccc3c2=O)cc1 | >57 | 4.4%
Cc1[nH]nc2c1C(=O)CC(C)(C)C2 | . | 12.0%
CCOC(=O)c1c(C)c(C(=O)NCCN2CCOCC2)c(C)n1C | >57 | -2.1%
COC(=O)c1ccc(COc2ncnc3c(Cl)cc(Cl)cc23)o1 | >57 | 2.0%
Cc1cc(C)n(C(CC(=O)N2CCc3ccccc3C2)C(=O)O)n1 (configuration not stated) | . | -18.7%
O=C(Nc1ccccc1)N1CC=C(c2ccccc2)CC1 | >57 | 4.5%
CC(=O)N1C(=O)c2cccc3cccc(c23)C(=O)N1C(C)=O | >57 | -4.3%
COc1ccc(OC(C)C(=O)N2CCN(c3ccccn3)CC2)cc1 (configuration not stated) | >57 | 7.4%
Cc1cccc(Cn2c(=O)n(Cc3ccco3)c(=O)c3ccccc32)c1 | >57 | ?
O=C(Nc1cccc(F)c1)N1CCCC2(CCN(C(=O)c3ccco3)CC2)C1 | >57 | 18.6%
Cc1nc2ccc(Nc3nc4cc(S(=O)(=O)N5CCOCC5)ccc4o3)cc2s1 | >57 | ?
O=C(CSc1nc2ccccc2c(=O)n1Cc1ccco1)c1ccc(F)cc1 | >57 | -5.5%
c1ccc(-c2cn3cccnc3n2)cc1 | >57 | 15.0%
O=C(Nc1ccccc1C(F)(F)F)C1CC(=O)N(c2ccccc2F)C1 (configuration not stated) | >57 | 1.6%
CN1C(=O)N(C)C(=O)C2(Sc3ccccc3C2=O)C1=O | >57 | ?
CC1CCCCC1NC(=O)C1CCN(C(=O)c2sccc2-n2cccc2)CC1 (configuration not stated) | >57 | -29.6%
(more compounds)
SMILES | SmPrx2 inh | Anthrax LT inh
O=C(Nc1nccs1)c1ccc(Br)o1 | >57 | -16.9%
COC(=O)[C@H]1C[C@@H]1[C@H](NC(=O)c1cc(C)nn1C)c1ccccc1 | >57 | 6.7%
CCCn1c(SCC(=O)NCCc2ccccc2)nnc1-c1cccnc1 | >57 | 6.3%
CCOCCCNS(=O)(=O)c1ccc2c(c1)oc(=O)n2CC(=O)OCC | >57 | 3.1%
C=CCn1cnc2scc(-c3ccccc3)c2c1=O | . | 8.5%
CC1(C)CC(=O)CC(C)(C)N1OC(=O)c1ccccn1 | >57 | 3.3%
NC(=O)c1oc2ccccc2c1NC(=O)c1ccco1 | >57 | 2.3%
CN(C)c1ncc2nc(-c3ccc(Cl)cc3)c(=O)n(Cc3ccc(F)cc3)c2n1 | >57 | ?
CC1CCC/C(=C\Nc2ccc(O)cc2)C1=O (configuration not stated) | >57 | -15.2%
COCCNC(=O)C(c1ccccc1)N(CCOC)C(=O)Cn1nnc2ccccc21 (configuration not stated) | >57 | 2.3%
Cc1ccc(S(=O)(=O)N2CCN(C(=O)CC3CCCC3)CC2)cc1 | >57 | 5.9%
COc1cccc(-c2nc(CS(=O)(=O)CC(=O)NCCC(C)C)c(C)o2)c1 | . | -9.4%
COc1ccc(-c2nc(CSCC(=O)NCC3CCCO3)c(C)o2)cc1OC (configuration not stated) | >57 | 4.1%
COc1ccc(C2C(C(=O)Nc3cccc(C)n3)c3ccccc3C(=O)N2C)cc1 (configuration not stated) | >57 | -3.3%
O=C(CSc1nnnn1-c1ccc(F)cc1)NC1CCCCC1 | >57 | 16.5%
CC(C)OCCCNC(=O)c1ccc2c(c1)ncn2C1CCCC1 | >57 | 4.0%
Cc1nc2ncnn2c(C)c1CCC(=O)NC(C)CCc1ccco1 (configuration not stated) | >57 | 5.6%
CCCn1c(SCC(=O)NCCc2ccccc2)nnc1-c1ccccn1 | >57 | 9.9%
COC1(C#CC2C=CC(OC(C)=O)C(COC(C)=O)O2)CCCCC1 (configuration not stated) | . | -11.0%[8 µM]
O=C(NCCO)C1CCN(S(=O)(=O)c2ccc(F)cc2)CC1 | >57 | 12.1%
O=C1OC(NC(=O)c2ccccc2)C(n2cc(CO)nn2)=C1Cl (configuration not stated) | >57 | 12.6µM*
O=C(N1CCCCCC1)N1CCN(C(=O)N2CCOCC2)CC1 | >57 | .
Cc1ccc(Cn2c(SCC(C)C)nc3c2c(=O)n(C)c(=O)n3C)cc1 | >57 | -4.5%
COc1cc(CC(=O)N2CCc3ccccc32)cc(OC)c1OC | >57 | -5.6%
Cc1cccc(-n2cnc3c(c2=O)c2nc4ccccc4nc2n3Cc2ccco2)c1 | ? | -9.4%
(next part)
SMILES | SmPrx2 inh | Anthrax LT inh
CCCCNc1cc(C)nc(NCc2ccccc2)n1 | >57 | .
CCOc1ccc2ccccc2c1C(=O)N1CCOCC1 | >57 | 5.0%
COc1ccc(S(=O)(=O)Nc2ccccc2C(F)(F)F)cc1 | >57 | -7.9%
N#CCCN(C(=O)Nc1ccc(Cl)cc1)c1ccccc1 | >57 | -3.2%
COc1ccc(NC(=O)c2cc3n(n2)C(C(F)(F)F)CC(c2ccco2)N3)cc1 (configuration not stated) | >57 | -13.8%
Cc1sc2ncnc(SC(C)C#N)c2c1C (configuration not stated) | >57 | -6.9%
CC1=Nn2c(nnc2-c2n[nH]c3c2CCC3)SC1 | >57 | 8.2%
Cc1ccc2c(c1)C(N1CCN(C)CC1)=Nc1cccnc1N2 | >57 | 23.4%
CCOC(=O)C1CCN(c2c(NCCCN3CCN(Cc4ccccc4)CC3)c(=O)c2=O)CC1 | >57 | 2.7%
CCn1c(Cc2ccccc2)nnc1SCc1nc2ccccc2c(=O)[nH]1 | >57 | -2.9%
CCOC(=O)c1c(C)c(C(=O)Nc2ccc3c(c2)OCCO3)c(C)n1C | >57 | -11.3%
O=C(c1csnn1)N1CCC2(CCCN(C(c3ccccc3)c3ccccc3)C2)CC1 | >57 | -1.6%

Part of the list above, as labelled records.
> COc1ccc(S(=O)(=O)Nc2ccccc2C(F)(F)F)cc1
  SmPrx2 inh: >57
  Anthrax LT inh: -7.9%

> N#CCCN(C(=O)Nc1ccc(Cl)cc1)c1ccccc1
  SmPrx2 inh: >57
  Anthrax LT inh: -3.2%

> COc1ccc(NC(=O)c2cc3n(n2)C(C(F)(F)F)CC(c2ccco2)N3)cc1 (configuration not stated)
  SmPrx2 inh: >57
  Anthrax LT inh: -13.8%

> Cc1sc2ncnc(SC(C)C#N)c2c1C (configuration not stated)
  SmPrx2 inh: >57
  Anthrax LT inh: -6.9%
